# Assay outcomes from PubChem BioAssay.
# Tgondii IFNg – T. gondii growth inhibition under IFN-gamma | Toxoplasma gondii growth in IFN-gamma-treated host cells; hits give low values; reference of the scale not given here | activity change, negative = inhibition, %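 (about 20 µM by stock and volumes)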 | 69,000 tested, 3.8% active | AID 1259416;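 active = below -70%; inconclusive = fit judged invalid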;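 note: host cells are HeLa cells infected with Toxoplasma gondii; parasite growth read as luciferase light; one replicate is shown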
# The depositor's hits bear a star; i = inactive; ? = inconclusive; & = joins results of further samples. These rows are one share of the data, so the mix of outcomes need not match the whole.
SMILES	Tgondii IFNg
CC12CCC3C4CCCC=C4CCC3C1CCC2O (configuration not stated)	-59
Cc1cccc(CNCCc2ccccc2)n1	-14
CCC(C)NC(=O)c1cc2cccnc2n(Cc2ccccc2)c1=O (configuration not stated)	9
OC[C@H]1[C@@H]2c3ccccc3NC[C@@H]2N1Cc1cccnc1	0
CC12CN3CC(C)(CN(C1)C3c1cccnc1)C2=O (configuration not stated)	5
CCSc1nc(CC(=O)N2CCN3CCNC(=O)C3C2)cs1 (configuration not stated)	129
CCc1ccc(CN2CCC3(CC2)CN(C)CCN3C)nc1	25
O=C(NC(=S)Nc1cc(C(F)(F)F)cc(C(F)(F)F)c1)Oc1ccccc1	-98*
C=C1CCC2(O)C3Cc4ccc(O)c5c4C2(CCN3CC2CC2)C1O5 (configuration not stated)	16
CN1C(=O)C(c2cccnc2)CC12CCNCC2 (configuration not stated)	43
O=C(NCC1CCCO1)c1cc2cccnc2n(Cc2ccccc2F)c1=O (configuration not stated)	-11
CCCCC1(C2CCCC2)Cc2cc(OCCCC(=O)O)c(Cl)c(Cl)c2C1=O (configuration not stated)	9
Cc1cccc(C(C(=O)NCCc2cnc[nH]2)N(C)C)c1 (configuration not stated)	8
c1ccc(CN2CCOC3(CCN(Cc4nccs4)CC3)C2)nc1	3
CC(C)N1CCOCC2(CN(C(=O)c3ccnnc3)CCO2)C1 (configuration not stated)	1
CCOC1C2CCC1N(Cc1cnn(C)c1)C2 (configuration not stated)	43
O=C(NC1CCCCCCCCCCC1)c1cc2cccnc2n(Cc2ccccc2F)c1=O	42
CN(C)CCNc1nc2cc(O)ccc2c2c1C(=O)c1ccccc1-2	-69
Cc1ccc(NC(=O)c2cc3cccnc3n(Cc3ccccc3)c2=O)cc1Cl	160
CN1CCC2(CCCN2Cc2cnn(C)c2)CC1	74

# 6 entries out of the list, ordered by count of non-hydrogen atoms, falling:
SMILES	Tgondii IFNg
O=C(NCC1CCCO1)c1cc2cccnc2n(Cc2ccccc2F)c1=O (configuration not stated)	-11
CN(C)CCNc1nc2cc(O)ccc2c2c1C(=O)c1ccccc1-2	-69
CCc1ccc(CN2CCC3(CC2)CN(C)CCN3C)nc1	25
Cc1cccc(C(C(=O)NCCc2cnc[nH]2)N(C)C)c1 (configuration not stated)	8
CC12CN3CC(C)(CN(C1)C3c1cccnc1)C2=O (configuration not stated)	5
CCOC1C2CCC1N(Cc1cnn(C)c1)C2 (configuration not stated)	43

# The results go on:
SMILES	Tgondii IFNg
c1ccc(CCN2CCCC3(CCNC3)C2)cc1 (configuration not stated)	-49
O=C1C2(c3ccccc3)CN3CCN(C2)CC1(c1ccccc1)C3	-4
CCCC1C(c2ccccc2)NC(c2ccccc2)CC1(O)c1ccc(F)cc1 (configuration not stated)	-97*
Cc1ccc2nc(CCNC(C)C)[nH]c2c1	4
Cn1cc(N2C[C@@H]3CNC[C@@H]3C2=O)cn1	-18
CCCN1CCO[C@@H]2c3cc(O)ccc3OC[C@H]21	3&28
CNC(=O)[C@H]1C[C@H]2CN(CC3CC3)C[C@H]1O2	8
COc1cccc(CNC(=O)c2cc3cccnc3n(Cc3ccc(F)cc3)c2=O)c1	-25
CCCC(C)(COC(N)=O)COC(N)=O	10
CN1[C@@H](CO)[C@@H]2c3ccccc3NC[C@@H]21	20
Fc1cccc([C@H]2CN(Cc3ccco3)[C@@H]3C4CCN(CC4)[C@H]23)c1F	3
N#CC(C#N)=NNc1cccc(Cl)c1	15
CCOC(=O)C1=NN(c2cccc(Cl)c2)C2c3cccc4cccc(c34)C12 (configuration not stated)	37
CCOc1ccc(N2C(=O)CC(=O)NC2=O)cc1	-8
CCc1ccccc1NC(=O)c1c(O)c2cccnc2n(Cc2ccccc2)c1=O	-88*
CN1CC2(CCN(c3ncnc4nc[nH]c34)CC2)CC1C(=O)O (configuration not stated)	-1
C[C@H]1CC[C@@]2(C)[C@@H](CC[C@@H]3[C@@H]2CC[C@]2(C)[C@@H](O)CC[C@@H]32)C1	-2
Cc1ccc(CN2CC[C@H]3[C@@H]2CCN3C(=O)Cc2cccc(F)c2)o1	-5
O=C1NC(=S)NC(=O)C1C(=O)Nc1ccccc1	79
CCN(CC)CCCNC(=O)c1cc2cccnc2n(Cc2ccccc2)c1=O	-18
CCOCCCNC(=O)c1cc2cccnc2n(Cc2ccc(F)cc2)c1=O	-23
O=C1N(c2cncnc2)CCC12CCCN(Cc1ccccn1)C2 (configuration not stated)	-5
CNC(=O)CN1CCOCC12CCN(c1ccc(C)nn1)CC2	-1
c1ccc(OC[C@@]23COC[C@@H]2CN(Cc2ccoc2)C3)nc1	-3
O=C(Nc1ccccc1Cl)c1cc2cccnc2n(Cc2ccc(F)cc2)c1=O	46
CN(C)CCN(C(=O)Cc1ccc2c(c1)CCCC2)C1CCN(C)CC1	-2
CC(C)C[C@H]1C(=O)N2CCCC2[C@]2(O)O[C@](NC(=O)[C@@H]3C=C4c5cccc6[nH]cc(c56)CC4N(C)C3)(C(C)C)C(=O)N12 (some centres not stated)	-7
COC(=O)CN1CN(c2ccccc2)C2(CCN(Cc3cccc4ccccc34)CC2)C1=O	-14
Cc1cc(C)n2ncc(CN(C)C(C)Cc3ccccn3)c2n1 (configuration not stated)	-5
C#Cc1cccc2c1c(C(=O)c1ccc(Cn3c(C)nc4cnccc43)c(F)c1)cn2C(=O)N(C)C	-10
O[C@@H]1CCCC[C@H]1N1CCC(c2ccccc2)CC1	20
O=C(Cc1ccncc1)N1CCCCN2[C@H](C1)[C@@H](c1ccc(C#Cc3ccccc3F)cc1)[C@@H]2CO	-41
CCn1nc(C)c(CNC(C)Cc2cccc(F)c2)c1C (configuration not stated)	-50
Cc1cccc(NC(=O)c2cc3cccnc3n(Cc3ccccc3)c2=O)c1C	74
COc1cc2c(cc1OC)[C@@H]1C(=O)c3ccc(OC)c(CC=C(C)C)c3O[C@@H]1CO2	21
COc1ccc2c(c1)C1(CCN(C(=O)c3nn(C)c4ccccc34)CC1)CC2CC(=O)O (configuration not stated)	-74*
CN1CC2(CCCN(Cc3cc(-c4ccccn4)no3)C2)OC1=O (configuration not stated)	7
COCCn1nnnc1CN1CCC(n2c(C)nc3cc(C(F)(F)F)ccc32)CC1	14
c1cncc(OC2COC3(CCCN(Cc4ccco4)C3)C2)c1 (configuration not stated)	4
Cc1cc(C)n2ncc(CN3CCCC4(CCNC4)C3)c2n1 (configuration not stated)	9

# Part of the list above in another layout:
CCn1nc(C)c(CNC(C)Cc2cccc(F)c2)c1C (configuration not stated)
  Tgondii IFNg: -50

Cc1cccc(NC(=O)c2cc3cccnc3n(Cc3ccccc3)c2=O)c1C
  Tgondii IFNg: 74

COc1cc2c(cc1OC)[C@@H]1C(=O)c3ccc(OC)c(CC=C(C)C)c3O[C@@H]1CO2
  Tgondii IFNg: 21

COc1ccc2c(c1)C1(CCN(C(=O)c3nn(C)c4ccccc34)CC1)CC2CC(=O)O (configuration not stated)
  Tgondii IFNg: -74*

# Reprinted at random: 3 entries already listed, in no set order.
SMILES	Tgondii IFNg
COCCn1nnnc1CN1CCC(n2c(C)nc3cc(C(F)(F)F)ccc32)CC1	14
O[C@@H]1CCCC[C@H]1N1CCC(c2ccccc2)CC1	20
Cc1cc(C)n2ncc(CN3CCCC4(CCNC4)C3)c2n1 (configuration not stated)	9

# Additional structures.
SMILES	Tgondii IFNg
O=C(O)C[C@H]1CC[C@@H]2NC[C@H](O)COC[C@H]2O1	9
O=C(Nc1ccc(C(F)(F)F)cc1)c1cc2cccnc2n(Cc2ccc(Cl)cc2)c1=O	-6
Cc1cc(C2C[C@H]3CC[C@@H](C2)N3Cc2cc3n(n2)CCNC3)ccc1F (some centres not stated)	-9
COc1ccc2c(c1)C1(CCN(C(=O)c3ccccc3F)CC1)CC2CC(=O)O (configuration not stated)	-54
CN1CCC2(CCCN(CC3CCOC3)C2)C1=O (configuration not stated)	-24
COCCN1CCN(S(=O)(=O)C2CC2)Cc2cccnc21	-8
FC(F)(F)CCN1CCC2(CCNCC2)C1	6
C1CCN(CC2COC3(CNCCOC3)C2)C1 (configuration not stated)	84
O=C(c1ncccc1O)N1CCC2(CC1)NCCNC2=O	-43
Cc1cnc2c(C(=O)N3C[C@@H]4CN(C)C[C@]4(C(=O)O)C3)cnn2c1	3
CC(C)NCC(O)c1ccc([N+](=O)[O-])cc1 (configuration not stated)	14
Cc1ccccc1CN1CC2CCCN2C[C@H]1C (some centres not stated)	16
c1cncc(CO[C@@H]2CN(Cc3ccco3)[C@H]3CCCO[C@@H]23)c1	2
COCCN1CC[C@H]2OCC[C@@H](C(=O)NCc3cccnc3)[C@@H]2C1	69
O=C(Nc1ccncc1)c1cc2cccnc2n(Cc2ccccc2)c1=O	63
COc1ccc(C2=NCC(=O)N(Cc3nc(-c4ccccc4)oc3C)c3sc4c(c32)CCCC4)cc1	-87*
COC[C@H]1CCC[C@]12CN(Cc1c(C)noc1C)CCO2	21
CC(=O)Nc1ccc(OC[C@](C)(O)C(=O)Nc2ccc([N+](=O)[O-])c(C(F)(F)F)c2)cc1	15
Cc1noc(C)c1CN1CCO[C@H]2CN(CC(C)O)C[C@@H]21 (some centres not stated)	27
COc1ccccc1CN1[C@H](CO)[C@H](c2ccccc2)C12CN(C(=O)Cc1ccccc1)C2	92
O=C(Nc1ccccc1F)c1cc2cccnc2n(Cc2ccc(F)cc2)c1=O	-12
C[C@@H]1CN(C(=O)c2cn(Cc3ccccn3)cc(C(=O)NC3CCCCCCC3)c2=O)C[C@H](C)O1	5
CCN(C)c1ncc2c(c1C(=O)O)CCN(C)C2	-59
O=C1CSC(c2ccccc2Cl)c2cc(Cl)ccc2N1 (configuration not stated)	24&10
Cc1ccc(F)c(C2NCCc3[nH]cnc32)c1 (configuration not stated)	6
O=S(=O)(c1ccccc1)N1CC[C@@H]2CNC[C@@H]21	-27
C[C@]12CC[C@@H]3c4ccc(OC(=O)N(CCCl)CCCl)cc4CC[C@H]3[C@@H]1CC[C@@H]2OP(=O)(O)O	20
COc1ccc2c(c1)C1(CCN(C(=O)[C@H](Cc3ccccc3)NC(C)=O)CC1)CC2CC(=O)O (some centres not stated)	8
Cc1cc(NC(=O)c2cc3cccnc3n(Cc3ccccc3F)c2=O)ccc1Br	12
O=C1CNC[C@@H]2[C@H](c3ccc(Br)cc3)[C@H](CO)N12	8
Cc1ccc(C2(CN3C[C@@H]4C[C@@H](C3)c3cccc(=O)n3C4)CCNCC2)nc1	7
O=C(NCCC1=CCCCC1)c1cc2cccnc2n(Cc2ccccc2)c1=O	-44
c1cncc(-n2cccc2CN2CCC3(CCNCC3)C2)c1	-1
CCCCCCC(=O)O[C@H]1CC[C@H]2[C@@H]3CCC4=CC(=O)CC[C@]4(C)[C@H]3CC[C@]12C	-75*
COc1ccc(Cl)cc1NC(=O)c1c(O)c2cccnc2n(Cc2ccccc2)c1=O	132
Cc1ccccc1CNC(=O)c1c(O)c2cccnc2n(Cc2ccccc2)c1=O	-119*
COCCN1C[C@H]2CCC[C@@H](CNc3ncccn3)[C@@H]2C1	7
CN(C)C(=O)Oc1cccc(NC(=O)c2ccccc2C(F)(F)F)c1	36
CCCn1cc(CN2C[C@H](c3ccccc3)[C@@H]3[C@H]2C2CCN3CC2)c(C)n1	-3
COc1ccc(OC)c(NC(=O)c2cc3cccnc3n(Cc3ccccc3F)c2=O)c1	11
Cc1cccc(CN2C[C@H]3OCCN(C)[C@H]3C2)n1	2
O=C1N(c2cncnc2)CCC12CCCN(Cc1ccoc1)C2 (configuration not stated)	i
CCN1C[C@]2(OC(=O)c3ccccc3NC(C)=O)CCC(OC)[C@]34C1[C@H](CC23)[C@@]1(O)CC(OC)[C@H]2CC4C1(O)[C@H]2OC (some centres not stated)	12
O=C(c1cnn2c1CCCC2)N1C[C@H](c2ccccc2)[C@@H]2[C@H]1C1CCN2CC1	-5
CN(C)c1cc(NCC2CCC3(CNCCOC3)O2)ncn1 (configuration not stated)	i
COc1cccc(CC(C)NC2CCN(C(=O)c3ccc(C)cc3)CC2)c1 (configuration not stated)	-2
C[C@@H]1CN([C@@H](C)CO)C(=O)CCCn2nncc2CO[C@H]1CN(C)C(=O)Oc1cccc2ccccc12	65
Cc1noc(C)c1CN1CCC2OCCCC2(COC(C)C)C1 (configuration not stated)	4
CCOC(=O)C1(O)C(=O)Nc2cc(OC)cc(OC)c21 (configuration not stated)	-41
OCCN1CCOC2(COCCN(Cc3ccncc3)C2)C1 (configuration not stated)	1

# (more compounds)
SMILES	Tgondii IFNg
CN1C(=O)C(C(=O)/C=C/c2ccc(Cl)cc2)C2CC1(C)Oc1ccccc12 (configuration not stated)	-57
CCCCOC(=O)c1ccc(NC(=O)c2cc3cccnc3n(Cc3ccccc3F)c2=O)cc1	-20
O=C(c1cccc(F)c1)N1CC2CNC(C2)C1 (configuration not stated)	76
COCc1cc(OC(=O)N(C)C)nc2c1c(-c1cccs1)nn2C	111
COC(=O)c1ccc(-c2ccc(C(=O)OC)cc2)cc1	16
COC(=O)[C@@H]1[C@@H](CO)[C@@H]2Cn3c(cccc3=O)[C@H]1N2CCc1ccccc1	7
COc1ccc(CC(=O)N2CCN(Cc3ccc4c(c3)OCO4)CC2)cc1OC	13
COCc1cncc2c1CCN(S(=O)(=O)c1cccs1)C2	2
CC(C)N(CCNC(=O)CN1CCCC1=O)C(C)C	?
O=C(NCc1ccccn1)c1cc2cccnc2n(Cc2ccccc2F)c1=O	44
